ClpP mod: qHTS Assay for Activators of ClpP; ATP-dependent Clp protease proteolytic subunit (Bacillus subtilis (strain 168)), P80244; purified B. subtilis ClpP, FRET peptide cleavage, 20 min; Potency, µM (top dose mostly 57.5 µM), inactives show top-dose activity change, negative = active; actives 1.9% (n = 340,000); active = well fitted falling curve with a large enough effect; inconclusive = small, poorly fitted or top-dose-only effect; inactive = no such curve, though single readings can be large or run the other way; also: the source files actives as falling curves though it sought activators and does not explain the sign; nearly all actives have a fitted effect of over 65% in size; many hits overshoot -100%
Target sequence (P80244 whole entry, looked up): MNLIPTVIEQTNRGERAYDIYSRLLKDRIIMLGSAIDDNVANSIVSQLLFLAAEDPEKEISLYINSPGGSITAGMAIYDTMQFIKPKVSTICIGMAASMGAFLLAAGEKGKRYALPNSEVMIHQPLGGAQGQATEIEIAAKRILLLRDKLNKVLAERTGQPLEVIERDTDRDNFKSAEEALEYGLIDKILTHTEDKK
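FRET quenching reversal measured ClpP activation: 10 microg/mL B. subtilis ClpP at pH 8 with the FRET-FV decapeptide, read at 430 nm after 320 nm excitation. The 20-min minus 0-min signal was scaled between DMSO/no-enzyme wells and ADEP (5.8 microM final).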
PINK1 expr mod: A Quantitative High throughput Screen to Identify Chemical Modulators of PINK1 Expression; PINK1 immunofluorescence, high-content cytometry, 24 h; actives 0.2% (n = 410,000); Potency, µM (series often up to 76.6 µM), for the others: at the highest dose activation (PINK1 increase), actives largely listed as activators; active = well fitted activation curve with a large enough effect; inconclusive = small, poorly fitted or top-dose-only effect; inactive = flat fitted curve, though single readings scatter; cell line not stated here;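 also: % of control where 0% means no effect; nearly all actives have a fitted effect of over 65% in size; a mitochondrial uncoupler was the plate control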
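Fluorescence from anti-PINK1 antibody, together with nuclear and cell stains, was scanned on a laser-scanning cytometer. Before staining, stable-line cells were incubated 24 hours with compounds at 5 concentrations; primary antibody 12 h at 10 degrees C.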
Numbers without * were called inactive; u = inconclusive. Potency is read from the fitted curve at half-maximal effect. This is a subset; count on the stated rates, not on these rows.

Screens in order – ClpP mod, PINK1 expr mod
O=C(NCCc1ccc(Cl)cc1)C1CCN(S(=O)(=O)c2ccc3[nH]ccc3c2)CC1
    -4.2%, 1.9%
Cc1ccccc1OC(=O)c1cc(-c2ccc3c(c2)OCCO3)on1
    31.6µM*, 1.4%
N#CC1=C2SCN(C3CCCCC3)CN2C(=O)CC1c1ccc(Br)cc1 (stereo not given)
    1.5%, -0.5%
COc1ccc2c(c1)c1c(c(=O)n(-c3cccc(C)c3)c(=O)n1CC(=O)NCC1CCCO1)n2C (stereo not given)
    4.0%, 1.6%
O=C(c1ccccc1Cl)N1CCC(c2nc3ccccc3s2)CC1
    0.6%, 1.5%
Cc1ccc(Cl)cc1NC(=O)CCn1cnc2ccccc2c1=O
    -2.8%, 2.9%
CCS(=O)(=O)c1ncc(Cl)c(C(=O)NCc2ccc(OC)cc2)n1
    -0.7%, 4.2%
CSc1cccc(NC(=O)CN(C)S(=O)(=O)c2ccc3c(c2)CCCN3C(C)=O)c1
    -0.1%, -1.8%
CCCCc1c(Cc2cccc(F)c2)ncn1CCc1ccccc1OC
    1.9%, u
Cn1cnc(S(=O)(=O)N2CCCC(C(=O)NCc3ccc(F)cc3)C2)c1 (stereo not given)
    0.9%, -1.2%
CCOC(=O)c1cnc2c(C)cc(C)cc2c1Nc1ccc(N2CCOCC2)cc1
    -0.1%, 0.8%
O=c1cc(-c2ccc(F)cc2)nc(SCc2nc(-c3cccc(Cl)c3)no2)[nH]1
    -0.5%, -1.3%
COc1ccccc1NCc1nnc2n1CCCCC2
    2.6%, 0.9%
O=C(NCCCc1ccccc1)c1nn(-c2ccccc2)nc1CO
    -13.9%, -0.1%
Cc1oc2ncn(C)c(=O)c2c1C(=O)N(C)c1ccccc1F
    -0.6%, 0.3%
Cc1cc2[nH]c(=O)c(=O)[nH]c2cc1S(=O)(=O)NCc1ccc(F)cc1
    5.0%, 3.3%
Cc1ccc(NC(=O)c2nc(S(=O)(=O)Cc3ccccc3F)ncc2Cl)cc1
    u, 3.9%
Cc1ccc(NC(=O)c2sc(-n3nc(C)c(Cc4ccc5c(c4)OCO5)c3C)nc2C)cc1Cl
    -6.1%, 2.1%
COc1cccc(NC(=O)Cn2c(=O)ccc3cc(S(=O)(=O)N4CCC(C)CC4)ccc32)c1
    -10.3%, -4.7%
COc1cc(OC)c(NC(=O)N2CCC(CN3CCOCC3)CC2)cc1Cl
    -5.0%, 1.1%
CSc1nc2c([nH]c3ccccc32)c(=O)n1-c1ccc(F)cc1
    -2.1%, 5.7%
Cc1ccccc1Nc1nc(N)c(C(=O)c2ccccc2Cl)s1
    -0.4%, -0.2%
O=C(CSc1ccccc1)NCc1ccc2c(c1)CCN2C(=O)c1ccc(Cl)cc1
    -1.7%, 0.4%
Clc1ccc(-c2noc3ncnc(NC4CCCCC4)c23)cc1
    2.6%, 0.8%
CN(C)c1ccc(CNC(=O)c2ccc3nc(CCc4ccccc4)oc3c2)cc1
    26.4%, 2.3%
CC(C)(C)c1ccc(OCCSc2nc(-c3cccs3)nc3cc(=O)[nH]n23)cc1
    2.2%, 1.4%
COc1ccc(C)cc1NC(=O)c1cc2c(=O)n3cccc(C)c3nc2s1
    -2.3%, 2.4%
Cc1c(C(=O)NCc2cccc(Cl)c2)sc2nc3n(c(=O)c12)CCC3
    -18.7%, 17.8%
COc1ccc(CNC(=O)C(=O)NCC(c2cccs2)S(=O)(=O)c2cccs2)cc1 (stereo not given)
    -0.1%, 0.5%
CCN1C(=O)c2ccccc2S(=O)c2ccc(C(=O)N3CCN(c4cccc(C)c4)C(C)C3)cc21 (stereo not given)
    1.2%, 2.0%
CCCCNC(=O)C(CC)Sc1nnc(-c2ccc(F)cc2)c(-c2ccc(F)cc2)n1 (stereo not given)
    u, 1.6%
COc1ccc(C(=O)Nc2ccccc2C(=O)OCc2cc(=O)n3nc(C4CC4)sc3n2)cc1
    u, 9.6%
COc1ccc(-n2c(=O)c3c4c(sc3n(Cc3cc(C)ccc3C)c2=O)CN(C(C)=O)CC4)c(OC)c1
    -3.9%, 0.8%
O=C(CC1C(=O)N(c2ccccc2)C(=O)N1CCc1cccs1)Nc1ccc(Cl)cc1 (stereo not given)
    -1.1%, 2.5%
CCN(CC)c1ccc(NC(=O)C2CCCN(S(=O)(=O)c3ccc4c(c3)oc(=O)n4C)C2)c(C)c1 (stereo not given)
    -0.4%, 0.9%
CCOC(=O)c1[nH]c2c(c1Cc1ccccc1C)C(=O)CC(c1cc(OC)ccc1OC)C2 (stereo not given)
    -0.6%, 3.1%
CCOC(=O)c1cccc(NC(=O)CCS(=O)(=O)c2ccc3c(c2)CCN3C(=O)CC)c1
    0.6%, 1.3%
CCCCn1nnnc1C(c1cc2ccccc2o1)N1CCN(C(=O)OCC)CC1 (stereo not given)
    -2.0%, 2.2%
CCC(=O)N1CCc2cc(CNC(=O)C(CC)c3ccccc3)ccc21 (stereo not given)
    1.1%, 1.6%
CCOC1CCCc2oc(-c3ccc(OC)cc3)c(C#CCCO)c21 (stereo not given)
    -29.5%, 0.7%
CC(NC(=O)c1cccc(NC(=O)c2nsc3ccccc23)c1)c1ccccc1 (stereo not given)
    92.1%, -0.1%
CCN(CC)c1ccc(/C=C/C2=C3C=CC=CC3NC=C2)cc1 (stereo not given)
    -3.6%, 0.9%
COCCCN1C(=O)c2[nH]nc(-c3ccccc3O)c2C1c1ccc(OC)cc1 (stereo not given)
    -2.1%, 2.2%
Cn1c(CNC(=O)CSc2n[nH]c(-c3ccccc3)n2)nc2ccccc21
    -1.4%, 2.1%
CC(=O)N1c2ccccc2C(=O)C1N1CCN(c2cccc(Cl)c2)CC1 (stereo not given)
    0.9%, 2.4%

Remaining list, next part
| SMILES | ClpP mod | PINK1 expr mod |
| --- | --- | --- |
| Cc1ccccc1CNC(=O)c1ccc(CN2CC(=O)N3CCCCC3C2=O)cc1 (stereo not given) | -0.7% | 1.7% |
| CCOC(=O)[C@]12CCC=C1N(Cc1cccc3ccccc13)C(=O)[C@H](CC(=O)NCc1ccc(OC)c(OC)c1)C2 | -2.3% | 0.1% |
| Cc1ccc(CSCCC(=O)N2CCN(c3cc(C)ccc3C)CC2)cc1 | 2.2% | 0.3% |
| Cc1ccc(C)c(S(=O)(=O)n2nc(C)c(S(=O)(=O)N3CCC(C)CC3)c2C)c1 | 0.5% | 2.5% |
| C[n+]1ccc(/C=C/c2cc[n+](C)c3ccccc23)c2ccccc21 | -12.7% | 3.98µM* |
| Cn1c(SCc2ccc(F)cc2)nc2ccc(C(=O)NCc3ccc(Cl)cc3)cc21 | 0.9% | 1.1% |
| COc1cc(NC(=O)c2cn(C3CCCC3)c(=O)c3c2c2ccccc2n3C)cc(OC)c1OC | u | -0.9% |
| O=c1[nH]cnc2c1[nH]c(=S)n2C1O[C@@H](CO)[C@H](O)[C@@H]1O (stereo not given in full) | -16.1% | -0.3% |
| Cc1ccc2c(=O)c(C(=O)c3ccccc3)cn(CC(=O)Nc3ccc(C)c(Cl)c3)c2n1 | -1.0% | 0.1% |
| COC(=O)c1ccc(NC(=O)Cc2coc3cc(C)ccc23)cc1 | 1.7% | 3.5% |
| CNC(=O)C1CCN(c2nc3ccccc3nc2C(F)(F)F)CC1 | -7.5% | 0.6% |
| CN(C(=O)CSc1nc(-c2ccccc2)no1)c1ccc(F)cc1 | 1.2% | 4.5% |
| COc1ccc(N(CC(=O)NCCc2ccc(Cl)cc2)S(=O)(=O)c2c(C)nn(C)c2C)cc1 | -0.8% | 2.1% |
| COC(=O)c1cc2occc2n1CC(=O)Nc1cccc(SC)c1 | -4.9% | 0.9% |
| Fc1ccccc1-n1ncc2c1ncn1nc(COc3ccc(Cl)cc3)nc21 | 4.2% | 0.8% |

Marked active in PINK1 expr mod, among the entries above:
SMILES	PINK1 expr mod
C[n+]1ccc(/C=C/c2cc[n+](C)c3ccccc23)c2ccccc21	3.98µM*

Continuation.
| SMILES | ClpP mod | PINK1 expr mod |
| --- | --- | --- |
| CCOC(=O)c1c(S(=O)(=O)N2CCC(C(=O)Nc3ccc(C)cn3)CC2)c(C)n(C)c1C | -0.2% | -0.7% |
| COc1ccc(CNC(=O)CSc2n[nH]c(-c3ccc(OC)cc3)n2)cc1 | 0.4% | 4.0% |
| CCOc1ccc(C(=O)Nc2cc(-c3nc4ccccc4s3)ccc2OC)cc1 | u | 8.8% |
| COc1ccccc1NC(=O)N1CCOc2ccccc21 | -1.4% | 2.2% |
| COc1cc(OC)cc(-c2nc3nc(C)c(CCC(=O)Nc4cc(F)ccc4F)c(C)n3n2)c1 | -15.7% | 1.4% |
| Cc1ccc(NC(=O)c2nnn(Cc3cccc(C(F)(F)F)c3)c2N)c(C)c1 | 4.1% | 5.5% |
| COc1ccc2c(c1)CC(C(=O)NCCCN1CCN(c3ccccc3F)CC1)CO2 (stereo not given) | -1.5% | 0.1% |
| O=S(=O)(c1ccc(Br)cc1)N1CCOCC1 | -1.9% | -0.7% |
| COc1ccc(NC(=O)C2COc3ccccc3C2)cc1Cl (stereo not given) | u | 4.4% |
| COc1ccc(-n2nnnc2C2CCN(S(=O)(=O)c3ccc(C)cc3)CC2)cc1 | -1.7% | 0.0% |
| COC(=O)[C@@]1(Cc2ccc(F)cc2)[C@H]2C(CC(=O)C(=O)N3CCCC3)C(=O)C[C@H]2CN1C(=O)c1ccccc1 (stereo not given in full) | -0.3% | 1.5% |
| Cc1ccc(C(=O)c2cn(Cc3ccccc3)c3ccccc3c2=O)cc1 | -1.1% | 2.4% |
| COc1ccc(OC)c(N(CC(=O)NCc2ccccc2)S(=O)(=O)c2ccccc2)c1 | 0.0% | 3.5% |
| Cc1ccc(C(=O)COC(=O)c2cccc(NC(=O)c3ccc(Br)cc3)c2)cc1 | 1.7% | 6.1% |
| CCOCCCNC(=O)c1c(NC(=O)c2nc(SCC)ncc2Cl)sc2c1CCCC2 | 0.4% | 1.4% |

4 entries from above, with each value named.
O=S(=O)(c1ccc(Br)cc1)N1CCOCC1
  ClpP mod: -1.9% | PINK1 expr mod: -0.7%

COc1ccc(NC(=O)C2COc3ccccc3C2)cc1Cl (stereo not given)
  ClpP mod: u | PINK1 expr mod: 4.4%

COc1ccc(-n2nnnc2C2CCN(S(=O)(=O)c3ccc(C)cc3)CC2)cc1
  ClpP mod: -1.7% | PINK1 expr mod: 0.0%

COC(=O)[C@@]1(Cc2ccc(F)cc2)[C@H]2C(CC(=O)C(=O)N3CCCC3)C(=O)C[C@H]2CN1C(=O)c1ccccc1 (stereo not given in full)
  ClpP mod: -0.3% | PINK1 expr mod: 1.5%

The results go on:
| SMILES | ClpP mod | PINK1 expr mod |
| --- | --- | --- |
| CCOC(=O)c1cnn(-c2cccc(Cl)c2)c1C1CCN(C(=O)OC(C)(C)C)CC1 | 0.7% | 2.2% |
| CC(=O)c1ccc(N2CCN(C(=O)C3CCCN(S(=O)(=O)c4ccc(Br)s4)C3)CC2)cc1 (stereo not given) | -11.7% | 1.1% |
| Cc1ccc(-c2[nH]c3ccccc3c2SCCNC(=O)c2ccc(S(=O)(=O)N(C)C)cc2)cc1 | -11.5% | 2.1% |
| O=C(CSc1nc(-c2ccc(F)cc2)[nH]c1-c1ccccc1)Nc1ccccc1 | u | 5.5% |
| CC(C)CC(=O)[C@@H](O)Cc1ccc(O)cc1 | -0.1% | -0.7% |
| CCOc1ccc(C(=O)NCCc2csc(-c3cccc(F)c3)n2)cc1OCC | -14.5% | 1.2% |
| Cc1ccc(CNc2nc3ccc(Cl)cc3n3nnnc23)cc1 | -11.5% | -1.3% |
| CCN1C(=O)C2(c3ccccc31)c1c(oc3ccc(C)cc3c1=O)C(=O)N2CCCOC(C)C (stereo not given) | 1.4% | -0.6% |
| CCCN1CNc2c(c(=O)[nH]c(=S)n2CCc2ccc(Cl)c(Cl)c2)C1 | 2.9% | -0.2% |
| CC(=O)Nc1ccc(/C=C2\C=C(C(O)c3ccc(NC(C)=O)cc3)c3ccccc32)cc1 (stereo not given) | -0.1% | 4.0% |
| CCOC(=O)c1cc(OC(=O)c2ccccc2C)n(-c2ccccc2)n1 | 0.7% | 0.2% |
| COc1ccccc1NC(=O)C1=C(C)Nc2nc(SCc3ccccc3)nn2C1c1ccccn1 (stereo not given) | -0.4% | 1.8% |
| O=c1n(Cc2cccc(C(F)(F)F)c2)c2ccccc2c2nc(-c3ccccc3)nn12 | -11.4% | 2.4% |
| Nc1nc2c(Br)ccc(Br)c2cc1C(=O)NCCc1ccccc1 | 0.1% | 14.1% |
| CC1CCCN(C(=O)c2cc3ccc4cccnc4c3[nH]2)C1 (stereo not given) | -1.9% | u |
| Cc1cc(C)c(NC(=O)C(=O)NCC(c2cccnc2)N2CCN(Cc3ccccc3)CC2)c(C)c1 (stereo not given) | -0.3% | 1.0% |
| CCOc1ccc(-n2c(SCC(N)=O)nc3c(oc4ccccc43)c2=O)cc1 | -5.6% | 2.1% |
| CCS(=O)(=O)c1ncc(Cl)c(C(=O)N(Cc2ccccc2)Cc2ccco2)n1 | -0.9% | -1.2% |
| CCCSc1ncc(Cl)c(C(=O)N2CCN(c3cccc(Cl)c3)CC2)n1 | -3.3% | 2.0% |
| COc1ccc(-c2noc(-c3ccc(NCc4ccc(C)cc4)c([N+](=O)[O-])c3)n2)cc1OC | 1.8% | 6.4% |

Screening data as filed in PubChem.
